NPR1 antag: human Npr1 receptor antagonism; P16066; AID 1347048; Potency, µM (highest dose often 46.3 µM), inactives show at the highest dose activity change, negative = inhibition, most hits filed as inhibitors; 76,000 compounds, 1.6% hits; HEK293 hNpr1 GloSensor cGMP, ANP-stimulated luminescence; active = well fitted inhibition curve with a large enough effect; inconclusive = small, poorly fitted or top-dose-only effect; inactive = no such curve, though single readings can be large or run the other way;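 further: nearly all actives have a fitted effect of over 60% in size; nearly all hits also lower the signal before the agonist is added; a reference antagonist and vehicle were the controls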
Target sequence (P16066 whole entry, looked up): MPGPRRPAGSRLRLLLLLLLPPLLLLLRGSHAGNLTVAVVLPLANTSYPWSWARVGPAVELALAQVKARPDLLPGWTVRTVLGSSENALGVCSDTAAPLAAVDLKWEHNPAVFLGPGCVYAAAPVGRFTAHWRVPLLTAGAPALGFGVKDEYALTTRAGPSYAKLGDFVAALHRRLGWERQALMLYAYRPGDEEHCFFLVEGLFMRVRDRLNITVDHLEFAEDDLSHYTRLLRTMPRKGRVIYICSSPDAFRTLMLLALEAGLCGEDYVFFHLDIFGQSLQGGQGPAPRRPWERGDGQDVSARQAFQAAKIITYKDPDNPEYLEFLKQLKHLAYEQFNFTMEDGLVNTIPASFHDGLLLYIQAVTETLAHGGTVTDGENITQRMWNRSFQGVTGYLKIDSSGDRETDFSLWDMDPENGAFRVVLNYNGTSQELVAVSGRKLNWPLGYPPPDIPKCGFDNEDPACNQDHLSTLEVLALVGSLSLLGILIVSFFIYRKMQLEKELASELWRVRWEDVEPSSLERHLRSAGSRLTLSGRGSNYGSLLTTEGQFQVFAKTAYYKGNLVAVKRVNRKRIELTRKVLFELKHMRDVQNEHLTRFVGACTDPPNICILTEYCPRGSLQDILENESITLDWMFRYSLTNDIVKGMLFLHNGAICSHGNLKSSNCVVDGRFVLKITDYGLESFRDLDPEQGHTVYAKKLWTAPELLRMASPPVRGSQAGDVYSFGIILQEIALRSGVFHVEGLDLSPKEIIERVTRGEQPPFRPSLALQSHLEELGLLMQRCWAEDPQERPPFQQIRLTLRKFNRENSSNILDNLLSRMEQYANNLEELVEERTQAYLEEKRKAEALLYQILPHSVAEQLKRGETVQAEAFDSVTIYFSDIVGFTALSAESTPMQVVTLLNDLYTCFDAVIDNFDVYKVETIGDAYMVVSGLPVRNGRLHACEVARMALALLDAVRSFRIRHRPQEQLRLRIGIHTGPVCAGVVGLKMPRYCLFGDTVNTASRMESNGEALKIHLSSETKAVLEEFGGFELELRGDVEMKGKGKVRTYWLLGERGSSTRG
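Compound pre-incubated 30 min at room temperature on GloSensor-loaded HEK293 cells stably carrying hNpr1 and the pGS-40F cGMP biosensor. Stimulation uses hNppA at 0.1 nM final; luminescence is taken at baseline and 20 min post-agonist.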
The depositor's hits bear a star; ? = inconclusive; [ ] = another dose, or the depositor's remark. On the % scale 0 is the no-effect control and ±100 the full control effect; potency means the concentration at half of the fitted maximal effect.

Preview:
SMILES	NPR1 antag
O=C(CN1CC2CC(C1)[C@H]1CCCC(=O)N1C2)N1CCN(c2ccccn2)CC1 (some centres undefined)	-12%
COc1ccc(C2Cn3cnc(C(=O)N4CCC(C(=O)Nc5ccc(F)c(F)c5)CC4)c3CO2)cc1 (centres undefined)	-12%
COc1ccc(C(=O)N2CCCC(n3cc(-c4nc(C5CC5)no4)nn3)C2)cc1F (centres undefined)	-6%
COCc1ccc2c(c1)c(OC(C)(C)C(=O)N1CCOCC1)nn2Cc1cccc(OC)c1	4%
CCn1nccc1C(=O)N1CCCCCNC(=O)[C@H]2C[C@H](C(=O)N3CCc4ccccc4C3)C[C@H]21	7%
O=C(NCc1ccncc1)c1nc2c(o1)CCN(CCCc1ccccc1)CC2	-16%[70.6 µM]

Results, repeating the preview:
SMILES	NPR1 antag
O=C(CN1CC2CC(C1)[C@H]1CCCC(=O)N1C2)N1CCN(c2ccccn2)CC1 (some centres undefined)	-12%
COc1ccc(C2Cn3cnc(C(=O)N4CCC(C(=O)Nc5ccc(F)c(F)c5)CC4)c3CO2)cc1 (centres undefined)	-12%
COc1ccc(C(=O)N2CCCC(n3cc(-c4nc(C5CC5)no4)nn3)C2)cc1F (centres undefined)	-6%
COCc1ccc2c(c1)c(OC(C)(C)C(=O)N1CCOCC1)nn2Cc1cccc(OC)c1	4%
CCn1nccc1C(=O)N1CCCCCNC(=O)[C@H]2C[C@H](C(=O)N3CCc4ccccc4C3)C[C@H]21	7%
O=C(NCc1ccncc1)c1nc2c(o1)CCN(CCCc1ccccc1)CC2	-16%[70.6 µM]
Cc1noc(C)c1-c1cc2cc(CN3CCN(C)CC3)oc2c(NC2CCN(C)CC2)n1	2%[70.6 µM]
O=C(c1ccc(C(F)(F)F)cc1)N1CCC2(CN[S+](=O)([O-])c3ccccc3N2)C1 (centres undefined)	21%
COC(=O)CNC(=O)N1CCC(Oc2ncccc2C(=O)N2CCCCC2)C1 (centres undefined)	-3%
CC(C)CCN1C(=O)CC[C@]2(C(=O)N(C)Cc3ccccc3)CCCC[C@@H]12	-8%
O=C(O)C[C@@H]1CCN(C(=O)N2CCOCC2)C[C@@H]1CCN1CCN(c2cccc(C(F)(F)F)c2)CC1	2%
Cc1cnc(C(=O)N[C@@H]2CCC[C@@H]2C(=O)NCCC2=CCCCC2)cn1	-8%
O=C(CCC1CCN(C(=O)[C@H]2C[C@@H]3C=C[C@H]2C3)CC1)N1CCC(Cc2ccccc2)CC1	?
Cn1cc(CN2C[C@H](C(=O)Nc3nccs3)C[C@@H]2c2cccc(C(F)(F)F)c2)cn1	-14%[70.6 µM]
O=C1CCCCC(C(=O)N2CCc3ccccc32)N1 (centres undefined)	1%
CN1CCC(Oc2nccnc2N2CCOCC2)C1 (centres undefined)	-2%
CC(=O)N1CCCN(CC[C@H]2CN(C(=O)C3CCCCC3)CC[C@H]2CC(=O)O)CC1	1%[70.6 µM]
Cc1ccc(CNC(=O)C2CN(S(=O)(=O)c3cccnc3)CC23CCCCC3)o1 (centres undefined)	-15%
Cc1noc([C@@H]2CN(C(=O)c3nn(C)c4ccccc34)C[C@H]2CO)n1	5%
O=C(Cc1ccc(F)cc1)N1CCCC(c2noc(COc3ccccc3F)n2)C1 (centres undefined)	-17%
COc1ccc(-c2cn3cc(C(=O)NCC(N)=O)nc3c(=O)n2CC2CC2)c(F)c1	2%
CN1CC2(CCN(Cc3cn[nH]c3-c3ccccc3)CC2)CC1C(=O)N1CCOCC1 (centres undefined)	-9%
COCC(=O)N1CCCC(c2nn(-c3ccccc3)c(=O)[nH]2)C1 (centres undefined)	23%[70.6 µM]
O=C([C@@H]1C[C@H](Oc2cccnc2)CN1C(=O)c1ccc2ccccc2n1)N1CCCC1	-2%
COCC(=O)N(C1CCOCC1)C1CCN(C(=O)c2ccc(OC)cc2)CC1	-3%
O=C(NC1CCN(Cc2ccccc2)CC1)C1CCCN(c2cnn(Cc3ccccc3)c(=O)c2)C1 (centres undefined)	-5%
COc1nc2c(cc1CNC(=O)C1CCOCC1)C(=O)N(C1CCCC1)C2	-7%
O=C(c1ccc2c(c1)OCO2)N1CCCN(c2cc(-c3ccccc3)[nH]n2)CC1	-4%
COc1ccc(C(=O)N2CCC(n3cc(-c4nc(C(C)C)no4)nn3)CC2)c(C)c1	-23%
CCOc1ccccc1C(=O)N1CCC(Cc2nc(-c3ccccc3)no2)CC1	?
CNC(=O)[C@@H](c1ccc(OC)cc1)N1CCC[C@H]1C(=O)NCCN1CCOCC1	1%[70.6 µM]
Cc1ccc(S(=O)(=O)N2CCCC(Cn3c(C4CC4)nc4cccnc43)C2)cc1F (centres undefined)	0%
CO[C@@](C(=O)N1CCOC[C@H]1c1ncc(-c2ccccc2)[nH]1)(c1ccccc1)C(F)(F)F	-26%
CC1(C)[C@H](Cc2cc(CN3CCOCC3)on2)C[C@@H]1NS(=O)(=O)c1ccccc1	0%[70.6 µM]
CCc1ccc(C(=O)N2C[C@@H](CO)[C@H](c3nc(C)no3)C2)cc1	-7%
COc1ccc(-c2cc(N3CCCN(C(=O)c4ccccn4)CC3)n[nH]2)cc1	-8%
CC(C)c1nc2nccc(-c3ccc4c(c3)OCCCO4)n2n1	-3%
CCc1nnc(NC(=O)C2CC(=O)N(c3n[nH]c4cc(Br)ccc34)C2)s1 (centres undefined)	-1%
CC(C)C(=O)N1CC[C@H]2COC(=O)N2c2cc(F)ccc2C1	0%[70.6 µM]
COc1ccc(C(C)NC(=O)C2CCN(C(=O)c3ncn4c3COC(c3ccccc3)C4)CC2)cc1 (centres undefined)	-12%
CN1C(=O)C(CC(=O)N2CCCC2)=C2CCCCC21 (centres undefined)	-14%
CC1(c2ccccc2)N(Cc2ccc(O)cc2)C(=O)OC12CCN(C(=O)C1CCC1)CC2 (centres undefined)	4%[70.6 µM]
CCNC(=O)NC[C@@H]1C=C(C)[C@H](Cc2nnc(-c3cncn3C)o2)C[C@H]1C(C)C	2%[70.6 µM]
C=CCn1cc(CN(CC)Cc2ccc(OC)cc2)c(C)n1	2%
O=C(c1ccncc1)N1CCCCCC1c1nnc(-c2ccccc2)o1 (centres undefined)	4%
CC(C)NC(=O)NCC12CCCC=C1NC(=O)CC2 (centres undefined)	8%
Cc1nn(-c2ccccc2)c(Oc2ccccc2F)c1CCC(=O)NCC(C)C	?
O=C(O)c1ccc(CN2C[C@H](O)C[C@H]2c2nc(-c3ccc4c(c3)OCO4)no2)cc1	-2%[70.6 µM]
O=C(NCc1ccc(F)cc1)[C@@H]1C[C@@H](c2ccc(F)cc2)N([S+](=O)([O-])c2ccccc2)C1	2%
COc1ccccc1OCC(=O)NCC1CCCN(Cc2ccc(C)c(C)c2)C1 (centres undefined)	-3%

Other records.
SMILES	NPR1 antag
C[C@@H]1CN(C(=O)c2cnn(C)c2)CC[C@@]1(O)C1CCOCC1	0%
CNC(=O)[C@@H](CC(C)C)N1CCC[C@H]1C(=O)NCCc1ccccn1	0%[70.6 µM]
O=C(CCc1cc2n(n1)CCCN(C(=O)CCc1ccsc1)C2)NC1CC1	1%
COc1ccc(C(CC(=O)N2CCC(OC)CC2)c2ccccc2)cc1 (centres undefined)	1%
COC[C@@H]1CN(S(=O)(=O)c2ccc(F)cc2)C[C@H]1c1nc(C)no1	2%
COc1ccc(C)cc1NC(=O)C[C@H]1NC(=O)c2ccccc2NC1=O	7%
COc1ccc2[nH]c3c(c2c1)CCNC31CCN(C(=O)C(C)(C)C)CC1	8%
CCCN1CCC2(CCN(C(=O)COC)CC2)Oc2ccccc21	32%[activator][70.6 µM]
CCn1nccc1C(=O)N1CCc2nnc([C@@H]3C[C@@H](O)CN3C(C)C)n2CC1	-2%
CC1(C(=O)Nc2cccc(F)c2)CCCCC(=O)N1 (centres undefined)	0%
O=C(c1ccsc1)N1CCn2c(nnc2[C@@H]2C[C@@H](O)CN2Cc2ccccc2)C1	-3%
Cc1cc(C(=O)N2CC(Oc3cccc(-c4nc(-c5ccccc5)no4)c3)C2)n[nH]1	1%
O=C1COc2ccc(NCCOc3ccccc3)nc2CN1Cc1ccccc1F	22µM*
CCC(C(=O)NCc1nnc2ccc(-c3ccccc3)nn12)c1ccccc1 (centres undefined)	7%
CO[C@H]1[C@H](NC(=O)c2sccc2Cl)c2ccccc2C12CCNCC2	1%
CC(C(=O)O)N1CC2(CCC1=O)CCN(C(=O)N1CCCC1)CC2 (centres undefined)	-18%
O=C(COc1ccccc1)N1CCC(O)(c2csc(CN3CCc4ccccc4C3)n2)CC1	-11%
O=C(NCc1ccc(F)cc1)C1CC(=O)N(c2n[nH]c3ccccc23)C1 (centres undefined)	1%
COc1ccc(C(=O)NC2CCCN(c3cc(-c4ccccc4)[nH]n3)C2)cc1 (centres undefined)	0%
O=C(c1ccc(Br)o1)N1CC2CC(C1)[C@H]1CCCC(=O)N1C2 (some centres undefined)	3%
C[C@@H]1C(=O)O[C@H]2[C@H]1CC[C@@]1(C)Cc3sc(Nc4ccccc4)nc3[C@@H](C)[C@H]21	?
O=C(CCc1ccco1)N1CCC(C2CCN(Cc3cccc(F)c3F)CC2)C1 (centres undefined)	2%
Nc1nc(CCC(=O)N[C@@H]2[C@@H](Cc3ccccc3)[C@H]3OCC[C@@H]23)cs1	4%
O=C(NCc1ccccc1)C1CCC(=O)N1C1CCN(C(=O)Cc2ccccc2F)CC1 (centres undefined)	8%
CCC(C)NC(=O)C1COC2(CCC(C)CC2)N1C(=O)c1cccc(C)c1 (centres undefined)	-3%

Next part; it opens with the 2 that closed the last part.
SMILES	NPR1 antag
O=C(NCc1ccccc1)C1CCC(=O)N1C1CCN(C(=O)Cc2ccccc2F)CC1 (centres undefined)	8%
CCC(C)NC(=O)C1COC2(CCC(C)CC2)N1C(=O)c1cccc(C)c1 (centres undefined)	-3%
Cc1noc(C)c1[S+](=O)([O-])N1CCC12Cc1ccccc1NC2=O (centres undefined)	-19%
COC[C@@H]1CN(Cc2cccc(OC)c2)C[C@H]1C(=O)NC1CC1	3%
CC(C)OCCCNC(=O)C1c2ccccc2C(=O)N(Cc2ccccc2)C12CCCC2 (centres undefined)	-1%
Cc1ccc(CNC[C@H]2O[C@H](Cc3cc(-c4ccc(F)cc4)on3)CC[C@@H]2O)cc1	-23%[70.6 µM]
O=C1CC(c2ccccc2)N(Cc2ccncc2)CCCN(C(=O)Cc2cccnc2)CCN1 (centres undefined)	5%
Cc1noc2c(Nc3ccc(C(N)=O)cc3)cc(-c3cccnc3)nc12	-8%[70.6 µM]
Cn1c(C(=O)N2CCc3c(n(Cc4cccnc4)n(-c4ccccc4)c3=O)C2)cc2ccccc21	3%
CCCc1nc(C(=O)N(C)CCCc2cnn(C)c2)cs1	3%
Cc1ccc(-n2c(C3CCN(C(=O)c4c(F)cccc4Cl)CC3)n[nH]c2=O)cc1	0%
Cc1nnc(CN2CCN(C)C3(CCC(=O)N(CC(=O)O)CC3)C2)o1 (centres undefined)	-2%
O=C(C1CC1)N1CCC(N2C(=O)C(O)C23CCCCC3)CC1 (centres undefined)	11%
COCCNC(=O)[C@@H]1C[C@H](Oc2ccccc2)CN1C(=O)c1cc(C)n(C)n1	2%
CC(C)N1CC[C@@H]2[C@H]1C(=O)NC[C@H](CCC(=O)NCc1ccccc1)N2C	-1%[70.6 µM]
Cc1noc([C@@H]2CN(C(=O)CC3CCCC3)C[C@H]2CO)n1	-3%
O=C(N1C[C@H]2CC[C@H]1C2)C1(Oc2ccc(Cl)cc2)CCNCC1	-28%
CCC[C@@H]1CN(CCC(=O)NCc2cccc(Cl)c2)C[C@H]1C(=O)O	16%
COc1ccc(CCNC(=O)Cn2nc3n(c2=O)CCCCC3)cc1OC	4%
Cc1[nH]cnc1CSCCn1ccnc1-c1nccn1C	0%
C#CCN(CC=C)C(=O)c1ccccc1OC1CCN(C(=O)c2cccnc2)CC1	-2%
COc1ccc(-c2nc(-c3ccccc3)nc3c2CN(C(=O)c2cccc(OC)c2)CC3)cc1	-3%
COC[C@@H]1CN(C(=O)c2cn[nH]c2C)C[C@H]1c1ccncc1	-1%
Cc1ccc(-c2cn3c(n2)CO[C@@H](CNCc2ccccc2Cl)C3)cc1	?
O=C(N[C@H]1C[C@H]2C(=O)NC[C@@H](CCC(=O)N3CCN(c4ccccn4)CC3)N2C1)c1ccccc1	-2%
O=C(c1ccncc1)N1CCCC(COc2ccccc2C(=O)N2CCOCC2)C1 (centres undefined)	1%
O=C(c1cccc(Cl)c1)N1CCN(c2cc(-c3cccs3)[nH]n2)CC1	0%
O=C(c1cccc(=O)[nH]1)N1CC[C@@H](c2ccc3c(c2)OCO3)[C@H](O)C1	0%
CN(C)C[C@@H]1CN(C)C[C@H]1NC(=O)c1cccc2[nH]ccc12	-2%
COCC1CN(C(C)=O)CC12CCN(Cc1cccc(OC)c1OC)CC2 (centres undefined)	5%
Cc1noc2c(-c3cccnc3NC3CCN(C)CC3)cc(-c3ccccc3)nc12	2%[70.6 µM]

Screening data as filed in PubChem BioAssay.

An excerpt, so the mix of outcomes need not match the whole.
